# RGS16-Gao HTS: regulators of human RGS16-Galphao interaction | binding response (% of control), % at 10 µM | O15492+P09471 | actives 0.38% (n = 220,000) | bead-based flow cytometry RGS16-Galphao binding, fluorescence; actives lie on both sides;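 active = below 25% or above 175%, edge rows of some plates excepted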;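 note: Galphao activated by GDP with aluminum fluoride before binding; 100% = wells without compound and 0% = beads without RGS; some results beyond the cut were filed as inactive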
# INS promoter inh: TRM-6 insulin promoter activity inhibition. TRM-6 cells (human fetal islet line), insulin promoter-eGFP reporter, imaging; reporter expression induced with tamoxifen. inhibition, % at 2 µM. actives 0.9% (n = 130,000);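 active = inhibition above the mean plus 3 SD, with well images judged a real hit on visual review, cut at about 60% in these data, passing the limit was not always enough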
# PKD1 inh: blocks activity of human protein kinase D1; Q15139; PKD1 kinase fluorescence polarization assay; inhibition, %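 (about 10 µM by stock and volumes)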; actives 0.056% (n = 200,000);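 active = inhibition of 50% or more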;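 note: controls were vehicle for no effect and a reference inhibitor for full effect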
# Target sequence (Q15139 whole entry, looked up): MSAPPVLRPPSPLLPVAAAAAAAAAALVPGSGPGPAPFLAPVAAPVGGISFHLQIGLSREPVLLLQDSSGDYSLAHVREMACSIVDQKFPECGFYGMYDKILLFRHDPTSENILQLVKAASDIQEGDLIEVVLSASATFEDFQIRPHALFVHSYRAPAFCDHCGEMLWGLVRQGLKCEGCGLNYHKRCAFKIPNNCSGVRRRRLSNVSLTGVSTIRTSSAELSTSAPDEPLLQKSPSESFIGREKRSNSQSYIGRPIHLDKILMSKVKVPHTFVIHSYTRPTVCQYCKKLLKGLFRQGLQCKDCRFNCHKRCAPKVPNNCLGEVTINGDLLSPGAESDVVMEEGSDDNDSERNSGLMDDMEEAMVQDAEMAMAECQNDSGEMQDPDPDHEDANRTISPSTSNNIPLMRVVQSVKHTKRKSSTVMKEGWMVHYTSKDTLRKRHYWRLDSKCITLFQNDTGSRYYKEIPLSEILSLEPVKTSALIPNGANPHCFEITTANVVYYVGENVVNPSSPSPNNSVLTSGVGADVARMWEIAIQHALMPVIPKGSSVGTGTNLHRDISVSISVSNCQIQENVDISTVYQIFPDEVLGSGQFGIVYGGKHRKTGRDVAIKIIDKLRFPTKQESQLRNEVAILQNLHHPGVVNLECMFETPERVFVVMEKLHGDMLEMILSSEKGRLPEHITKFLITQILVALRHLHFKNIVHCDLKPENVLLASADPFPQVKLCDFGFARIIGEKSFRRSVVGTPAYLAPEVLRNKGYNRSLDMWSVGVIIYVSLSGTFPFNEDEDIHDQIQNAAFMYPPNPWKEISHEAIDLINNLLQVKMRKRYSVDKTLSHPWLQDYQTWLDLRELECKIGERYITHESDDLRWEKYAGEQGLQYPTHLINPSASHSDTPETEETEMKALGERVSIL
# HSV replic up: increases HSV replication in cells; maximum fold increase; HSV replication augmentation in cells, fold increase; actives 0.005% (n = 220,000);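 active = peak rise of 1.5-fold or more in the series; tested in PC3 cells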;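 note: first round at 10 µM; read as green reporter fluorescence; hits show the peak of a series up to 25 µM; 1 = signal of infected wells without compound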
# GALR2 ag: agonists of human galanin receptor 2 (GALR2); O43603; GALR2-expressing cells, agonist activation read-out; activation, %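 (tested at 5 µM)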; actives 0.48% (n = 140,000); AID 803;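 active = above mean plus 3 SD of all compounds, about 5% in these data, not always enough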;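 note: 0% = vehicle buffer wells and 100% = reference agonist at full effect; tested in CHO reporter cells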
# INS promoter inh cell count: further read-out of INS promoter inh, marked with its call; normalized cell count, %; measured here: cell count, toxicity; reference of the scale not given here;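 cells exposed to compound for 48 h; stained nuclei by imaging scaled within each plate; lower means fewer cells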
# HSV replic up primary fold: recorded beside HSV replic up, whose call it bears; fold increase; compound at 10 µM; measured here: primary screen fold increase 10 uM; tested in PC3 cells;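 GFP signal in the first replicate; 1 = infected wells without compound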
# * hit, by the source's call; i = inactive; x = not tested or not shown.
smiles	RGS16-Gao HTS	INS promoter inh	INS promoter inh cell count	PKD1 inh	HSV replic up	HSV replic up primary fold	GALR2 ag
COc1ccc(S(=O)(=O)N2CCC(C(=O)N3CCC(C(N)=O)CC3)CC2)cc1Cl	102	0	78	-5	i	0.98	x
CCN(CC)S(=O)(=O)c1ccc(NC(=O)c2c(-c3ccccc3)noc2C)cc1	115	10	118	-4	i	0.78	-0.5
CCCOc1ccc(Cn2c(C)nc([N+](=O)[O-])c2SCC(O)COC)cc1[N+](=O)[O-] (centres undefined)	96	-39	105	-5	i	0.86	-3.6
O=C(COC(=O)c1ccc(F)cc1)Nc1ccc(Cl)cn1	97	x	x	x	i	1	x
COC(C(=O)NNC(=O)CCc1ccccc1)c1ccccc1 (centres undefined)	105	-14	117	2	i	0.96	x
COc1ccc(C)cc1NC(=O)Nc1ccccc1SC	100	x	x	9	i	0.94	x
Nc1c(C(=O)NCCc2ccccc2)nnn1Cc1ccc(Cl)cc1	114	17	123	-5	i	0.85	0.8
Cc1ccccc1NC(=O)/C(C#N)=C/c1ccsc1	105	-38	102	-4	i	1.1	0.6
O=C(NCCCN1CCN(CCCNC(=O)c2ccccc2F)CC1)c1ccccc1F	101	-51	73	3	i	1	-0.5
COc1ccc(-c2nnn(CC(=O)N(CC(=O)NC3CCCC3)c3cccc(C)c3)n2)cc1OC	109	x	x	6	i	0.9	-1.3
O=C(COc1ccccc1C(=O)NCC1CCCO1)Nc1ccc(Br)cc1 (centres undefined)	81	-17	100	-3	i	0.9	x
COC(=O)c1ccc(C2OCC(C)(C)CO2)cc1	99	7	126	-2	i	0.93	x
CCNc1ccccc(C(=O)/C=C/c2ccc3c(c2)OCO3)c1=O	85	17	70	7	i	1.1	-4.0
Cc1ccc2c(c1)COc1c3ccc(C(=O)NCC4CC4)cc3nn1-2	106	x	x	x	i	0.92	x
Cc1cc(Br)c(OCC(=O)NN)c2c1CCC2	100	x	x	x	i	1.1	x
COc1ccc(NC(=O)C2CC(=O)NC3=C2C(=O)CC(C)(C)C3)cc1 (centres undefined)	64	-22	34	-12	i	1.1	-2.4
Cn1c(SCC(=O)NC(=O)CN2CCCC2=O)nnc1-c1ccc(F)cc1	101	x	x	-5	i	1	x
COc1ccc(CCNC(=O)c2ccccc2N(C)S(=O)(=O)c2ccccc2)cc1	105	-29	73	-4	i	0.83	-0.3
Cc1nc(N2CCC(C)CC2)c2c(C)c(C(=O)Nc3ccccc3C(F)(F)F)sc2n1	94	-117	40	5	i	1	x
O=C(Nc1nccs1)c1cccc(S(=O)(=O)N2CCOCC2)c1	103	-22	105	3	i	1	-1.4
Cc1ccc2oc(=O)c3cc(C(=O)NCCN4CCc5ccccc5C4)sc3c2c1	63	-12	122	-10	x	x	-0.6
CCc1sc(N)nc1-c1ccccc1	76	x	x	-1	i	1.1	-1.2
COc1ccc(NC(=O)N2c3ccc(OC)cc3C(C)=CC2(C)C)cc1	65	14	119	-6	i	1	-1.7
CC1(C)CC(=O)C(N=Nc2ccc(Cl)cc2)=C(O)C1	103	21	130	-1	i	0.94	-0.7
Cc1sc(NC(=O)c2ccc(Cl)s2)c(C(N)=O)c1C	106	-152	71	-4	i	1.1	0.0
COc1ccc(Cc2nnc(SCC(=O)NCCc3ccccc3)o2)cc1	110	-29	114	-11	i	0.76	-2.8
CCOc1ccc(C(=O)N(C)C2CCS(=O)(=O)C2)cc1 (centres undefined)	103	12	105	-4	i	1.1	-0.5
O=C(CC1SCCNC1=O)Nc1ccc(Cl)cc1 (centres undefined)	113	7	117	-3	i	0.99	x
O=C1c2ccccc2C(=O)C1C1=Nc2ccccc2NC(c2ccccc2)C1 (centres undefined)	80	-35	63	0	i	1	x
Cn1c(=O)c(C(=O)COC(=O)c2cc(-c3ccccc3)nc3ccccc23)c(N)n(Cc2ccccc2)c1=O	101	-48	78	1	x	x	-2.7
CCN(CCn1cccn1)Cc1nc(-c2ccccc2)no1	100	x	x	2	i	1	x
Cc1ccc(C)c(N2CCN(c3ccncc3N)CC2)c1	105	x	x	x	i	0.92	x
CC1=C(C(=O)OC2CCCCC2)C(c2cccs2)n2c(nc3ccccc32)N1 (centres undefined)	93	10	102	3	i	1	-1.9
c1ccc(COc2cccc(CNCc3cccs3)c2)cc1	98	x	x	-1	x	x	-0.7
CCN(CC)c1nc(=S)nc(NC(C)(C)C)[nH]1	104	x	x	0	i	0.88	-2.3
O=[N+]([O-])c1ccc(Cl)cc1Sc1ccccn1	94	33	111	-5	x	x	0.2
O=C(c1ccc(-n2cccn2)cc1)N1CCc2c([nH]c3ccccc23)C1c1ccccn1 (centres undefined)	68	x	x	8	i	0.96	x
Cc1nn(CC(=O)N2CCOCC2)c(=O)c2ccccc12	70	-139	51	1	i	1	-1.0
Cc1nc(SCC(=O)N(C)C2CCCCC2)[nH]c(=O)c1Cc1ccccc1	100	-26	95	-1	i	1	-1.6
COc1ccc(-n2c(C)cc(-c3csc(N)n3)c2C)cc1	0.5*	-13	116	-4	i	1.1	-0.9

# Part of the list above in order of molecular weight, smallest number first:
smiles	RGS16-Gao HTS	INS promoter inh	INS promoter inh cell count	PKD1 inh	HSV replic up	HSV replic up primary fold	GALR2 ag
CCN(CC)c1nc(=S)nc(NC(C)(C)C)[nH]1	104	x	x	0	i	0.88	-2.3
Cc1ccc(C)c(N2CCN(c3ccncc3N)CC2)c1	105	x	x	x	i	0.92	x
O=C(CC1SCCNC1=O)Nc1ccc(Cl)cc1 (centres undefined)	113	7	117	-3	i	0.99	x
Cc1nn(CC(=O)N2CCOCC2)c(=O)c2ccccc12	70	-139	51	1	i	1	-1.0
CCOc1ccc(C(=O)N(C)C2CCS(=O)(=O)C2)cc1 (centres undefined)	103	12	105	-4	i	1.1	-0.5
COc1ccc(-n2c(C)cc(-c3csc(N)n3)c2C)cc1	0.5*	-13	116	-4	i	1.1	-0.9
c1ccc(COc2cccc(CNCc3cccs3)c2)cc1	98	x	x	-1	x	x	-0.7
Cc1sc(NC(=O)c2ccc(Cl)s2)c(C(N)=O)c1C	106	-152	71	-4	i	1.1	0.0
COc1ccc(NC(=O)N2c3ccc(OC)cc3C(C)=CC2(C)C)cc1	65	14	119	-6	i	1	-1.7
O=C1c2ccccc2C(=O)C1C1=Nc2ccccc2NC(c2ccccc2)C1 (centres undefined)	80	-35	63	0	i	1	x
COc1ccc(Cc2nnc(SCC(=O)NCCc3ccccc3)o2)cc1	110	-29	114	-11	i	0.76	-2.8
Cc1nc(SCC(=O)N(C)C2CCCCC2)[nH]c(=O)c1Cc1ccccc1	100	-26	95	-1	i	1	-1.6
CC1=C(C(=O)OC2CCCCC2)C(c2cccs2)n2c(nc3ccccc32)N1 (centres undefined)	93	10	102	3	i	1	-1.9
O=C(c1ccc(-n2cccn2)cc1)N1CCc2c([nH]c3ccccc23)C1c1ccccn1 (centres undefined)	68	x	x	8	i	0.96	x
Cn1c(=O)c(C(=O)COC(=O)c2cc(-c3ccccc3)nc3ccccc23)c(N)n(Cc2ccccc2)c1=O	101	-48	78	1	x	x	-2.7

# (continued)
smiles	RGS16-Gao HTS	INS promoter inh	INS promoter inh cell count	PKD1 inh	HSV replic up	HSV replic up primary fold	GALR2 ag
Cc1cc(C)cc(OCC(=O)OCC(=O)N2CC(=O)Nc3ccccc32)c1	108	x	x	1	i	0.91	x
Cc1nn(C)c(C)c1S(=O)(=O)N(CC(=O)NCc1cccs1)c1ccc(C(C)C)cc1	101	x	x	9	i	1	0.0
COC(=O)c1c(C(=O)OC)c(C)n(Cc2ccco2)c1C	97	-73	91	-6	i	0.9	0.7
CNS(=O)(=O)c1cccc(C(=O)OCC(=O)Nc2ccc(-c3nc4ccc(C)cc4s3)cc2)c1	99	x	x	4	i	0.89	x
CCOc1ccc2nc(N3CCC(C(=O)N4CCN(C(=O)c5ccco5)CC4)CC3)sc2c1	102	-71	67	-2	i	1.2	-1.0
CCc1cccc2c(C(=O)COC(=O)c3c(C)noc3C)c[nH]c12	96	41	52	2	i	0.86	-1.0
Cc1ccc(CNC(=O)CS(=O)(=O)CC(=O)O)cc1	98	38	125	1	i	0.79	-1.1
CCc1cccc2c(C(=O)COC(=O)c3nn(C)c(=O)c4ccccc34)c[nH]c12	99	28	97	11	x	x	-1.5
CSc1ccc(CNCCCN(C)C)cc1	108	x	x	-6	i	1	-0.2
Fc1ccc(-n2c(Cn3nnc4ccccc43)n[nH]c2=S)cc1	92	x	x	11	i	1	x

# Random excerpt: 2 entries already listed.
smiles	RGS16-Gao HTS	INS promoter inh	INS promoter inh cell count	PKD1 inh	HSV replic up	HSV replic up primary fold	GALR2 ag
Cc1nn(C)c(C)c1S(=O)(=O)N(CC(=O)NCc1cccs1)c1ccc(C(C)C)cc1	101	x	x	9	i	1	0.0
Cc1cc(C)cc(OCC(=O)OCC(=O)N2CC(=O)Nc3ccccc32)c1	108	x	x	1	i	0.91	x

# The listing continues:
smiles	RGS16-Gao HTS	INS promoter inh	INS promoter inh cell count	PKD1 inh	HSV replic up	HSV replic up primary fold	GALR2 ag
CC1CCC(NC(=S)NCCN(C)C)CC1 (centres undefined)	102	5	112	-4	i	1	x
CCOC(=O)c1cc2c(=O)n3ccccc3nc2n(CCCOC)c1=NC(C)=O	95	0	68	-10	x	x	13*
O=C1CC(c2ccc3c(c2)OCO3)c2cc3c(cc2N1)OCCO3 (centres undefined)	102	-31	154	0	i	0.89	0.2
Nc1nc(CCOc2ccc(F)cc2)cs1	99	x	x	12	i	1	x
COc1ccc(S(=O)(=O)Nc2cc(C(C)C)c(O)cc2C)cc1	101	-6	79	-9	i	1	-0.8
CCCCn1c(N)c(-c2nc3ccccc3o2)c2c([N+](=O)[O-])nn(CC)c(=O)c21	108	44	104	-1	i	0.94	0.7
Cc1ccc(/C=N/NC(=O)c2nnn(-c3nonc3N)c2CSc2ccc(Cl)cc2)cc1	84	-60	55	1	i	1.1	x
COc1ccccc1OC(=O)CCc1nc2ccccc2s1	89	x	x	0	i	1	x
COc1cc(OC)c(N(C)S(=O)(=O)c2cccc(C(=O)NC(C)C3CC4CCC3C4)c2)cc1Cl (centres undefined)	100	x	x	x	i	0.76	x
CSc1nnc(C(C)(C)C)c(=O)n1/N=C/c1c(O)ccc2ccccc12	92	x	x	x	i	0.98	x
CC(=O)Nc1ccc(C(=O)NCC(=O)OCc2ccccc2F)cc1	98	x	x	-1	i	0.95	x
O=C(O)C1(S(=O)(=O)CCC(F)=C(F)F)CC1	104	x	x	4	i	0.96	x
CCN(CC)CCN1C(=O)c2ccccc2NC1c1ccc(Br)cc1 (centres undefined)	101	-29	98	-4	i	1.1	x
CCOC(=O)CCNC(C)C1COc2ccccc2O1 (centres undefined)	98	x	x	-11	i	1.1	-2.1
CN(C(=O)CC1C(=O)NCCN1CC(c1ccccc1)c1ccccc1)C(C1CC1)C1CC1 (centres undefined)	102	x	x	x	i	0.99	x
CCN(CC)S(=O)(=O)c1cccc(NC(=O)c2cc3ccccc3o2)c1	105	19	73	5	i	0.93	-1.8
COc1ccc(C(=O)Oc2c(C)occc2=O)cc1OC	105	x	x	-17	i	1.1	-1.9
CCCc1nc(SCC(=O)Nc2ccc(N3CCOCC3)cc2)c2ccccc2n1	117	33	128	-4	i	0.96	-2.0
COc1cccc2c1OCC1COc3c(c(=O)n(C)c(=O)n3C)C21 (centres undefined)	99	6	72	-8	i	1	-0.8
NS(=O)(=O)c1ccc(N/N=C/c2cn(-c3ccccc3)nc2-c2ccccc2)c([N+](=O)[O-])c1	102	50	66	-7	i	0.57	x
CCN1CCN(c2nc3sc4c(c3c(=O)n2-c2ccc(OC)cc2)CCCCC4)CC1	103	-6	40	-13	i	0.85	-0.4
CCCCNS(=O)(=O)/C=C/c1ccccc1	26	31	115	2	i	0.98	-2.1
CCc1nc(C)cn1S(=O)(=O)c1cc(Cl)c(OC)cc1Cl	76	-34	156	-13	i	0.98	-1.2
O=C(NCC1CCCO1)C1c2ccccc2C(=O)N1C1CCCCCC1 (centres undefined)	99	-41	122	-1	i	0.91	-0.5
CCOc1ccc(-n2cc(C(=O)Nc3cccc(C)n3)c3cc(OC)c(OC)cc3c2=O)cc1	x	46	157	-7	i	0.62	-2.4
CCCSC1=C(C#N)C(c2ccc(OC)cc2)C2=C(CC(C)(C)CC2=O)N1 (centres undefined)	98	6	119	-3	i	0.87	0.4
Cc1sc2ncn(CC(=O)NCCCOC(C)C)c(=O)c2c1S(=O)(=O)N1CCN(c2ncccn2)CC1	104	-11	69	7	i	0.91	x
CN(c1cccc(NC(=O)CN(c2ccc(C34CC5CC(CC(C5)C3)C4)cc2)S(C)(=O)=O)c1)S(C)(=O)=O	104	-12	107	-9	i	0.98	1.7

# Bioassay records: PubChem BioAssay, several laboratories
